Screens as filed in PubChem.
Arbovirus anti: blocks arbovirus infection; actives 0.37% (n = 200,000); AID 1251; arbovirus infection cell-based antiviral screen; inhibition, % at 10 µM;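 active = inhibition from about 30%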;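 also: bluetongue infection of BSR cells; cell survival read as ATP light after 72 h; 0% = infected wells without compound and 100% = uninfected wells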
YopH PTP inh: YopH (Yersinia) phosphatase inhibition | fluorescence Ex485/Em525 | inhibition, %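 (about 10 µM by stock and volumes)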 | actives 0.16% (n = 140,000) | AID 898;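 active = inhibition of 50% or more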;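 also: controls were vehicle for no effect and minimum signal wells for full effect; inactives centre near -20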
RecA intein inh: inhibitors of M. tuberculosis RecA intein splicing. cell-free RecA intein splicing, fluorescence. P9WHJ3. inhibition, %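 (about 9 µM by stock and volumes)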. actives 0.75% (n = 290,000). AID 2221; in the data active = inhibition above about 30%; inconclusive = no clear call, values can overlap the other calls;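 also: 0% = vehicle wells and 100% = reference inhibitor control wells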
Target sequence (P9WHJ3 whole entry, looked up): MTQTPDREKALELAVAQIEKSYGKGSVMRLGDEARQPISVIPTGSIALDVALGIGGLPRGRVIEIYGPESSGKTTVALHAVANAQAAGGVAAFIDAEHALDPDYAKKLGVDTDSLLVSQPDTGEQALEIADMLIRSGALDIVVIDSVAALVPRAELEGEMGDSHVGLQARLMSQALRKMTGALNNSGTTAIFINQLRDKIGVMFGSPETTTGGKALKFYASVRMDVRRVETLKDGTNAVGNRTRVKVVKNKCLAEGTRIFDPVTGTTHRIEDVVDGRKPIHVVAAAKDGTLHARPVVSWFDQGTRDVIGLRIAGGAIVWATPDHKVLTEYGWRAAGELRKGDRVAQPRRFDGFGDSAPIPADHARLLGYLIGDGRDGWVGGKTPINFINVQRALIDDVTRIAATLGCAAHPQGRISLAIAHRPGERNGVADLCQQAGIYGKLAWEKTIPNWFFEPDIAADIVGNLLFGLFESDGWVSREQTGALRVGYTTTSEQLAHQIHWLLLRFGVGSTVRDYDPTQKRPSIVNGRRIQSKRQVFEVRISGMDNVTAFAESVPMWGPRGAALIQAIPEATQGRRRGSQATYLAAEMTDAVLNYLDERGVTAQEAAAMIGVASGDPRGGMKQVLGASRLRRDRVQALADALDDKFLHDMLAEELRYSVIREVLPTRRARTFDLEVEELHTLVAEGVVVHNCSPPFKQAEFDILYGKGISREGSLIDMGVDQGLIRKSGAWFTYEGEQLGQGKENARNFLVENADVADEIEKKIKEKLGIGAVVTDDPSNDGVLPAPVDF
Mtb bLac sens: beta-lactam sensitization of Mtb H37Rv; M. tuberculosis H37Rv growth with meropenem, percent inhibition; hits of this screen are not shown here; inhibition, % at 25 µM; actives 0.27% (n = 330,000); AID 434955;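 active = about 74% or more and at least 40 points above the plate without the antibiotic, then above 30% in a dose series; inconclusive = first-round hits that could not be retested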;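 also: growth measured after seven days incubation then overnight dye step; 0% = bacteria only wells and 100% = bacteria with antibiotic; twin plates without the antibiotic show which effects depend on it; some results filed as inactive read as strong as hits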
Mtb growth: M. tuberculosis H37Rv growth inhibitors, H37Rv strain (AID 1626) | M. tuberculosis H37Rv growth inhibition; higher % means a stronger effect | one-dose inhibition, % at 10 µM; IC50 in µM for titrated hits | actives 0.95% (n = 220,000);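 active = confirmed in a dose series; inconclusive = inhibition above 80% but not taken into the dose series; inactive = below 80% or under 30% at every dose of the series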;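 also: bacteria incubated seven days before Alamar blue readout; 0% = bacteria only wells and 100% = bacteria with antibiotic wells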
Arbovirus anti repeat: second read-out of Arbovirus anti, no call of its own (marks repeat the call); inhibition, %; measured here: 10K subset replicate screen; many hits read low in the repeat;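 first of two repeat runs on a subset; 0% = infected and 100% = uninfected wells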
Starred values were filed as active, the others as inactive. Some of the compounds tested (hit frequency here may not be typical).

Results for Cc1ccc(C)n1-c1cccc(S(=O)(=O)N2CCOCC2)c1 ?
Arbovirus anti: -10; RecA intein inh: 4.9; Mtb bLac sens: -2; Mtb growth: 4%

How did CC(=O)N(C)c1ccc(NS(=O)(=O)c2cccc3nsnc23)cc1 do in these assays?
RecA intein inh: -0.4; Mtb bLac sens: 3

Results for COc1cccc(CC(NC(C)=O)C(=O)NC2CCN(C(=O)c3ccc(Cl)cc3)CC2)c1OC (centres undefined) ?
RecA intein inh: 1.4; Mtb bLac sens: -5

How did Cc1c(Cl)cccc1NC(=O)COC(=O)c1c2c(nc3ccccc13)CCN(Cc1ccccc1)C2 do in these assays?
Arbovirus anti: 26; YopH PTP inh: -8; RecA intein inh: -1.3; Mtb bLac sens: 1; Mtb growth: 19%

How did CC1CC(=O)Nc2ccccc2N1C(=O)Nc1ccc(F)cc1 (centres undefined) do in these assays?
RecA intein inh: -2.7; Mtb bLac sens: 1; Mtb growth: 6%

What do the screens show for `CC(C)c1cc(C(C)C)c(S(=O)(=O)NNC(=O)c2ccncc2)c(C(C)C)c1`?
Arbovirus anti: -16; YopH PTP inh: -57; RecA intein inh: 0.4; Mtb bLac sens: 17; Mtb growth: 20%

What do the screens show for `CN(C1=NS(=O)(=O)c2ccccc21)c1ccc(OC(=O)c2ccccc2)cc1`?
RecA intein inh: 2.8; Mtb bLac sens: 8

How did O=C(NCCCN1CCOCC1)C1(c2ccccc2)CCCC1 do in these assays?
Arbovirus anti: 3; YopH PTP inh: 5; RecA intein inh: -0.2; Mtb bLac sens: -14; Mtb growth: -4%

How did O=C(c1cc2cc(Cl)ccc2[nH]1)N1CCN(c2ccccc2F)CC1 do in these assays?
RecA intein inh: -1.9; Mtb bLac sens: 0

Results for NS(=O)(=O)c1ccc(NC(=O)COC(=O)CCC2CCCC2)cc1 ?
Arbovirus anti: 8; RecA intein inh: 0.8; Mtb bLac sens: 6; Mtb growth: 2%

How did O=C(CN1CCN(C(=O)c2ccccc2)CC1)Nc1ccc(Br)cn1 do in these assays?
Arbovirus anti: -3; YopH PTP inh: -6; RecA intein inh: 1.5; Mtb bLac sens: -4; Mtb growth: 4%

What do the screens show for `CCN(CC)CCn1c2c(c(SCC(=O)NCc3ccccc3)nc1=O)CCCC2`?
RecA intein inh: -2.5; Mtb bLac sens: -13

How did Cn1cc(/C=C(\NC(=O)c2ccccc2)C(=O)NCCN2CCOCC2)c2ccccc21 do in these assays?
RecA intein inh: -3.1; Mtb bLac sens: 9

How did CCC(=O)Nc1ccc(C2C(=O)c3ccccc3C2=O)cc1 do in these assays?
RecA intein inh: 0.6; Mtb bLac sens: -2

How did COc1cc(C)nc(OCCNS(=O)(=O)c2cc(C)ccc2C)n1 do in these assays?
Arbovirus anti: 6; YopH PTP inh: -15; RecA intein inh: 1.9; Mtb bLac sens: -6; Mtb growth: -4%

How did Cc1csc(NC(=O)Cc2ccc(Cl)cc2)n1 do in these assays?
RecA intein inh: 0.8; Mtb bLac sens: -2

Results for COc1ccccc1NC(=S)NCc1ccc2c(c1)OCO2 ?
Arbovirus anti: 1; YopH PTP inh: -26; RecA intein inh: 1.3; Mtb bLac sens: -4; Mtb growth: 8%

How did CCCOC(=O)c1c(N)sc(C(=O)OCC)c1C do in these assays?
Arbovirus anti: -2; YopH PTP inh: -20; RecA intein inh: -3.2; Mtb bLac sens: 6; Mtb growth: 17%

How did CC1CCCN(CCCNC(=O)c2cn(C)c3ccc(S(=O)(=O)N(C)C4CCCCC4)cc3c2=O)C1 (centres undefined) do in these assays?
RecA intein inh: -2.5; Mtb bLac sens: -3

How did CCOC(=O)N1CCN(C(=S)Nc2ccc(C)c(C)c2)CC1 do in these assays?
Arbovirus anti: 0; YopH PTP inh: -20; RecA intein inh: 0.3; Mtb bLac sens: 3; Mtb growth: -4%

Molecules from the list above that have fluorine:
How did CC1CC(=O)Nc2ccccc2N1C(=O)Nc1ccc(F)cc1 (centres undefined) do in these assays?
RecA intein inh: -2.7; Mtb bLac sens: 1; Mtb growth: 6%

How did O=C(c1cc2cc(Cl)ccc2[nH]1)N1CCN(c2ccccc2F)CC1 do in these assays?
RecA intein inh: -1.9; Mtb bLac sens: 0

Continuation.
How did O=c1c2c(nc3nc(Cc4ccccc4)[nH]n13)CCC2 do in these assays?
Arbovirus anti: 1; YopH PTP inh: 10; RecA intein inh: -0.7; Mtb bLac sens: 0; Mtb growth: 0%

How did Oc1csc(Cc2nc(-c3ccc(-c4ccccc4)cc3)cs2)n1 do in these assays?
Arbovirus anti: -6; YopH PTP inh: -11; RecA intein inh: 28; Mtb bLac sens: -10; Mtb growth: -1%

What do the screens show for `O=Cc1ccc(OCc2cn3ccccc3n2)cc1`?
Arbovirus anti: 9; RecA intein inh: -5.0; Mtb bLac sens: -3; Mtb growth: -2%

Results for COC(=O)c1ccc(C)c(NC(=O)c2ccc(Cl)c([N+](=O)[O-])c2)c1 ?
Arbovirus anti: 1; YopH PTP inh: -1; RecA intein inh: -1.7; Mtb bLac sens: 0; Mtb growth: -2%

Results for Cc1cc(C)cc(NC(=O)CN2CCN(c3ncccn3)CC2)c1 ?
Arbovirus anti: -4; YopH PTP inh: -24; RecA intein inh: 4.3; Mtb bLac sens: -10; Mtb growth: -9%

Results for O=C(COC(=O)c1ccc(Cl)nc1)Nc1ccccc1OC(F)F ?
Arbovirus anti: 6; RecA intein inh: 1.2; Mtb bLac sens: 3; Mtb growth: 5%

Results for CCCNC(=S)N1CC2(C)CN(C(=O)C(=O)OC)CC(C)(C1)C2=O ?
Arbovirus anti: 2; RecA intein inh: 1.1; Mtb bLac sens: -6; Mtb growth: -7%

What do the screens show for `Cc1cccn2c(=O)c(C=Nc3ccc(Cl)cc3)c(NCCO)nc12`?
Arbovirus anti: 1; YopH PTP inh: -33; RecA intein inh: -6.7; Mtb bLac sens: -2; Mtb growth: -7%

What do the screens show for `O=C(/C=C/c1ccccc1)N1CCN(CCN2C(=O)c3cccc4cccc(c34)C2=O)CC1`?
Arbovirus anti: -21; YopH PTP inh: -26; RecA intein inh: -0.4; Mtb bLac sens: 100; Mtb growth: inconclusive

Results for CC1(C)CC(=O)C(C=NCCN2CCN(C(=O)NC34CC5CC(CC(C5)C3)C4)CC2)=C(O)C1 ?
Arbovirus anti: 12; YopH PTP inh: -18; RecA intein inh: 4.6; Mtb growth: 3%

Results for COCc1cc(C)n(CC(=O)Nc2ccc(Cl)cc2Cl)c(=O)c1C#N ?
Arbovirus anti: 9; YopH PTP inh: -11; RecA intein inh: -0.8; Mtb bLac sens: -2; Mtb growth: -4%

How did O=C(NC1CCCCCC1)c1ccc2c(=O)n3c(nc2c1)CCCCC3 do in these assays?
Arbovirus anti: -3; YopH PTP inh: -16; RecA intein inh: 1.5; Mtb bLac sens: 9; Mtb growth: 0%

How did COc1ccc(NC(=O)C2Cc3cc(S(=O)(=O)N4CCCCC4)ccc3N2C(C)=O)cc1Cl (centres undefined) do in these assays?
RecA intein inh: 5.2; Mtb bLac sens: 0

Results for CCOC(=O)c1c(C)[nH]c(C(=O)C(C)OC(=O)c2oc3ccccc3c2COC)c1C (centres undefined) ?
Arbovirus anti: 2; YopH PTP inh: -15; RecA intein inh: 9.2; Mtb bLac sens: -8; Mtb growth: -3%

How did CN(C)S(=O)(=O)c1cccc(-c2nnc(SCC(=O)NCCCCCC(=O)O)n2-c2ccc(F)cc2)c1 do in these assays?
Arbovirus anti: 2; RecA intein inh: -2.2; Mtb bLac sens: 5; Mtb growth: 1%

Results for COc1ccc(CCn2c(=N)c(C(=O)NC3CCCC3)cc3c(=O)n4ccccc4nc32)cc1 ?
RecA intein inh: -3.5; Mtb bLac sens: 10

Results for COc1ccc(N(CC(=O)NC2CCCCC2)C(=O)CNC(=O)c2cccs2)cc1 ?
RecA intein inh: -2.8; Mtb bLac sens: -1

Results for Cc1nc2c(-c3ccccc3)c(C)[nH]n2c(=O)c1Cc1ccccc1 ?
Arbovirus anti: -16; RecA intein inh: 8.0; Mtb bLac sens: 89; Mtb growth: inconclusive

Results for Cc1ccc(NC2CC(=O)N(Cc3ccccc3)C2=O)cc1 (centres undefined) ?
Arbovirus anti: -4; YopH PTP inh: -1; RecA intein inh: 3.5; Mtb bLac sens: -2; Mtb growth: -3%

How did C=CCc1ccccc1OCCNCc1ccccc1 do in these assays?
Arbovirus anti: 3; RecA intein inh: 3.9; Mtb bLac sens: 2; Mtb growth: 2%

What do the screens show for `C#CCn1c(S(=O)(=O)Cc2ccc(OC)cc2)nc(-c2ccccc2)c1-c1ccccc1`?
Arbovirus anti: -19; YopH PTP inh: -40; RecA intein inh: 6.5; Mtb bLac sens: -2; Mtb growth: 0%

Results for CCCCCCC(=O)N(O)C1CC(=O)N(c2ccc(Br)cc2)C1=O (centres undefined) ?
Arbovirus anti: 2; YopH PTP inh: -51; RecA intein inh: 2.1; Mtb bLac sens: 6; Mtb growth: -3%

What do the screens show for `COc1cccc(CNC(=O)C2CCCN(c3nn4c(=O)cc(C)nc4s3)C2)c1OC` (centres undefined)?
Arbovirus anti: 1; YopH PTP inh: -9; RecA intein inh: -3.8; Mtb bLac sens: -6; Mtb growth: -3%

Results for COCCCNC(=O)CCn1c(=O)c2ccccc2n(CC(=O)Nc2ccccc2C)c1=O ?
Arbovirus anti: 2; YopH PTP inh: -14; RecA intein inh: 5.0; Mtb bLac sens: -2; Mtb growth: -6%

How did COc1ccccc1C1CCN(C(=O)C2CCCCC2)CC1 do in these assays?
RecA intein inh: 4.6; Mtb bLac sens: 9

Results for CNC(=O)C(=O)N1CCC2(CC1)OCCN2S(=O)(=O)c1ccc(C)cc1 ?
RecA intein inh: 2.8; Mtb bLac sens: -9

How did O=C(Cc1ccc(Cl)cc1)Nc1ccc(Cl)cn1 do in these assays?
RecA intein inh: 0.2; Mtb bLac sens: 6

What do the screens show for `CCCNC(=O)[C@H]1N2C(=O)c3c(ccc(OC)c3OC)C2SC1(C)C` (some centres undefined)?
RecA intein inh: -0.5; Mtb bLac sens: -8

How did CCOc1ccc2nc(NC(=O)CS(=O)(=O)c3ccccc3)sc2c1 do in these assays?
Arbovirus anti: -1; YopH PTP inh: 10; RecA intein inh: -2.1; Mtb bLac sens: 78; Mtb growth: inconclusive

What do the screens show for `O=C1c2ccc3c4c(ccc(c24)C(=O)N1Cc1cccnc1)C(=O)N(Cc1cccnc1)C3=O`?
Arbovirus anti: -25; YopH PTP inh: -11; Mtb growth: 8%

Results for COc1ccc(-n2c(-c3ccc(Br)cc3)c[n+]3c2CCCCC3)cc1 ?
Arbovirus anti: 27; RecA intein inh: -0.6; Mtb bLac sens: -8; Mtb growth: -3%

How did O=C(O)c1cc(N/N=C/c2ccc3c(c2)OCO3)ccc1Cl do in these assays?
Arbovirus anti: -2; Mtb bLac sens: -8; Mtb growth: -1%

What do the screens show for `CCOc1ncccc1C(=O)N1CCN(c2cc(Cl)ccc2C)CC1`?
Arbovirus anti: -12; RecA intein inh: 5.6; Mtb bLac sens: 0; Mtb growth: 5%

How did CCOC(=O)c1cc2c(ccn2C)n1Cc1ccc(C#N)cc1 do in these assays?
Arbovirus anti: -13; RecA intein inh: 6.0; Mtb bLac sens: 8; Mtb growth: 0%

How did CN(Cc1nccn1C)C(=O)C1CCC(=O)N(Cc2cccc(C(F)(F)F)c2)C1 (centres undefined) do in these assays?
RecA intein inh: -4.6; Mtb bLac sens: -2

Results for CC(=O)c1ccc(OC(=O)Cc2cccc3ccccc23)cc1 ?
RecA intein inh: 16; Mtb bLac sens: 3

How did O=C(CSc1ccc2nnc(-c3cccnc3)n2n1)Nc1ccc(F)cc1 do in these assays?
RecA intein inh: 0.5; Mtb bLac sens: inconclusive

What do the screens show for `O=C(Cc1ccccc1)NC(C(=O)O)C(O)c1ccc([N+](=O)[O-])cc1` (centres undefined)?
RecA intein inh: -1.5; Mtb bLac sens: -2

What do the screens show for `Clc1ccc(CSc2nnc(-c3sccc3-n3cccc3)o2)cc1`?
Arbovirus anti: -2; YopH PTP inh: -23; RecA intein inh: 6.9; Mtb bLac sens: 0; Mtb growth: 7%

How did C#CCOc1c(/C=C\c2nc(O)c([N+](=O)[O-])c(=O)[nH]2)cc(Br)cc1OC do in these assays?
RecA intein inh: -11; Mtb bLac sens: 1

How did O=C(Nc1nccs1)C1CCN(S(=O)(=O)c2ccccc2)CC1 do in these assays?
RecA intein inh: 3.6; Mtb bLac sens: 7

What do the screens show for `COc1ccc(NC(=O)COC(=O)c2ccc(Br)o2)cc1OC`?
Arbovirus anti: 4; YopH PTP inh: -16; RecA intein inh: 0.6; Mtb bLac sens: -6

How did CCc1nccn1S(=O)(=O)c1ccc(OC)c(OC)c1 do in these assays?
Arbovirus anti: -1; YopH PTP inh: -38; RecA intein inh: -0.1; Mtb bLac sens: -6; Mtb growth: 0%; Arbovirus anti repeat: 3
